Vif TR-FRET = inhibitors of Vif binding to APOBEC3G peptide, primary screen, biochemical, TR-FRET, GST-Vif 1-94, biotin-A3G peptide, dose response retest (AID 1117319). TR-FRET GST-Vif / biotin-A3G peptide binding; higher % means a stronger effect; test concentration not given here; strong numbers were not always called active. actives 0.57% (n = 260,000). inhibition, %, or IC50 in µM where a hit was titrated. Virion infectivity factor (Human immunodeficiency virus type 1 group M subtype B (isolate …;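 active = above the screen mean plus three standard deviations and confirmed in dose response; inconclusive = results disagree or hit not tested in dose response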;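 note: Vif residues 1-94 fused to GST binding biotinylated APOBEC3G peptide 110-148; 0% = full assay without inhibitor and 100% = GST in place of GST-Vif; retest series ran down from 100 µM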
B2AR ag = beta2AR agonists driving receptor internalization, primary screen, cell-based, FAP fluorogen, flow cytometry; response, % (test concentration not listed); AID 504454, 2011; Am2.2-beta2AR cells; reference of the scale not given here; actives 0.43% (n = 340,000); Beta-2 adrenergic receptor (Homo sapiens), P07550;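 active = response above a set limit, near 3 SD of response in nonfluorescent compounds, cut at about 42% in these data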;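 note: stock transfer was 100 nL into about 11 µL; a reference agonist was the positive control; negative values mostly stem from fluorescent compounds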
E coli growth = E. coli growth inhibition, primary screen, OD600. Escherichia coli growth, 23 h; active compounds read low. OD600 absorbance (test concentration not listed). actives 0.21% (n = 330,000). AID 1053175, 2014;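 active = OD600 absorbance below the run mean of sample wells minus 3.6 SD, in any replicate, cut at about 0.56 in these data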;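 note: stock transfer was 300 nL into about 60 µL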
HNF4A DNA FP = change in binding of human HNF4A to DNA, primary screen, biochemical, fluorescence polarization, FITC-DNA. 1 h. Hepatocyte nuclear factor 4-alpha (Homo sapiens), P41235. actives 0.3% (n = 360,000). activity change, % at 10 µM. AID 1224865, 2016; in the data active = activity change above about 30%, passing the limit was not always enough;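 note: controls were the assay level and a saturating level of protein; the project sought stronger binding though the title names inhibitors; some compounds called inactive have numbers as strong as hits; positive values seem to mean higher polarization but the record does not say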
Target sequence (P41235 whole entry, looked up): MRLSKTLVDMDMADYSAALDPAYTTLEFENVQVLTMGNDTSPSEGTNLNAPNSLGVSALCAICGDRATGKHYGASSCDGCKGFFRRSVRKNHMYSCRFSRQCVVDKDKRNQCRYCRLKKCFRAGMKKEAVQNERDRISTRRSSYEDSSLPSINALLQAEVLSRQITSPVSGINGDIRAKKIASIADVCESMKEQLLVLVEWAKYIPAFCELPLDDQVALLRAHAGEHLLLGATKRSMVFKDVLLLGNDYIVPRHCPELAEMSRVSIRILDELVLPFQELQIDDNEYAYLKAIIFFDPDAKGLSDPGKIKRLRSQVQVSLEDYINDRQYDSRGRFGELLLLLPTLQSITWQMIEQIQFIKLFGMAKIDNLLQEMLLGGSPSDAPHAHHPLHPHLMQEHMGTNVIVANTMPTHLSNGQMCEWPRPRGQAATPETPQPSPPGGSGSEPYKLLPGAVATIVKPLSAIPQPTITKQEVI
LANA-H2A inh = blockers of LANA interaction with H2A/H2B – biochemical, FP readout, HTS, primary screen; inhibition, % (test concentration not listed); Protein LANA1 (Human herpesvirus 8 type P (isolate GK18)), Q9QR71; cell-free LANA-H2A/H2B peptide, fluorescence polarization; actives 0.6% (n = 320,000); AID 2629, 2010; in the data active = inhibition mostly above about 10%, no sharp cut-off; inactive = mostly below about 6.7%;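 note: stock transfer was 7.5 nL into about 10 µL; 0% = median of vehicle wells and 100% = median of positive control wells; one replicate is shown; the record names a cut of 25% in any replicate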
UCH37 DUB inh = inhibitors of human UCH37 deubiquitinase, primary screen, biochemical, Ub-AMC cleavage, fluorescence. actives 0.33% (n = 330,000). purified proteasome/UCH37. AID 588478, 2011. Ubiquitin carboxyl-terminal hydrolase isozyme L5 (Homo sapiens), Q9Y5K5. inhibition, % (concentration not given with the values);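 active = mean of two replicates above 20%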;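 note: 0% = compound-free wells with enzyme and 100% = wells lacking proteasome; stock transfer was 100 nL into about 20 µL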
Target sequence (Q9Y5K5 whole entry, looked up): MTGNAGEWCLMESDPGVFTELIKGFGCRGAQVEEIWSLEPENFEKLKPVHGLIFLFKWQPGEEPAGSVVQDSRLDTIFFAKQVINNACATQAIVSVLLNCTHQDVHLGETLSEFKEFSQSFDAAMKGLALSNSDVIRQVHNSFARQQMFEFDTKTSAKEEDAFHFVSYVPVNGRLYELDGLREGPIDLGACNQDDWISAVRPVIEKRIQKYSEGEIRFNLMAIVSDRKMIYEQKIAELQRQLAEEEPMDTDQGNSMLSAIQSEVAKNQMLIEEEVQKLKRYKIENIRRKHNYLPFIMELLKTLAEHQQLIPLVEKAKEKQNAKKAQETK
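Reagent: Ub-AMC substrate; assay system: Proteasome-associated human UCH37 deubiquitinase; controls: no-proteasome and no-compound wells; read-out: % inhibition of Ub-AMC cleavage fluorescence; timing: 30 min preincubation with enzyme, 25 min cleavage at room temperature; signal: AMC fluorescence from Ub-AMC cleavage, excitation 355 nm, emission 460 nm; buffer or medium: Tris-HCl pH 7.4 plus ovalbumin, ATP-MgCl2, DTT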
A1 inh = caspase 3/7 activation in MEF A1-2A-BIM cells, primary screen, A1 inhibitor project, cell-based, luminescence, HTS | Caspase-Glo 3/7 luminescence, 3 h; percent of clofoctol response, vehicle zero | caspase activation, % (concentration not given with the values) | actives 0.066% (n = 330,000) | AID 2462, 2010;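 active = over half of replicate activation scores above 10%, or exactly half above 10 with the replicate mean above 10; inconclusive = replicate mean below 10 yet half the replicates above 10; inactive = over half of replicates below 10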;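 note: wells of about 30 µL received 50 nL stock; many hits fall short of the cut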
Numbers without * were called inactive; i = inactive; ? = inconclusive; / = not tested or not shown; & = joins results of further samples.

SMILES	Vif TR-FRET	B2AR ag	E coli growth	HNF4A DNA FP	LANA-H2A inh	UCH37 DUB inh	A1 inh
N#Cc1ccccc1Sc1ccccc1C(=O)NCC(c1ccco1)N1CCCC1 (stereo not drawn)	-3%	-4	0.7	3.6	-1.0	2.5	-0.3
CCC1(C)Cc2ccccc2-c2nc(NCCO)n(-c3ccc(C)cc3)c(=O)c21 (stereo not drawn)	17%	9	0.71	-2.8	-4.4	-326	-1.4
CCN(CC)C(=O)Oc1c(Cl)cc(Cl)c2cccnc12	-1%	7	0.69	-2.5	-0.4	0.0	-0.7
O=C(Nc1ccc2c(c1)Cc1ccccc1-2)c1ccncc1	3%	-2	0.69	1.1	-3.0	-3.1	-1.2
CCOc1ccc(N(C(=O)c2snc(C(N)=O)c2N)C(C(=O)NCC2CCCO2)c2ccco2)cc1 (stereo not drawn)	/	-4	0.64	-1.0	-5.1	-5.3	-1.2
CCCCC[C@H](O)/C=C/[C@@H]1[C@@H](CCCCCCC(=O)O)[C@@H](O)C[C@H]1O	2%	-3	/	1.9	-15	4.2	-0.2
CC(=O)c1cccc(N2C(=NC(=O)C3CC3)SC3CS(=O)(=O)CC32)c1 (stereo not drawn)	11%	0	0.64	-0.7	4.5	2.2	-0.1
CCC(CO)Oc1cc(NCc2ccc(C)c(C)c2)c2ncn(C(C)C)c2c1 (stereo not drawn)	/	-5	0.69	-1.2	-1.1	4.3	0.2
COc1ccc(/C=N/NC(=O)Cc2n[nH]c(=O)[nH]c2=O)cc1	-2%	-12	/	0.0	1.5	/	1.0
O=C(O)c1ccccc1C1c2ccccc2Oc2ccccc21	4%	2	0.67	-1.5	/	0.8	/
C=CC[C@@H](CC(=O)N[C@@H](CO)Cc1ccccc1)C(=O)NCCOC(=O)[C@@H](CC=C)Cc1ccc(F)cc1	4%	0	0.7	1.5	/	1.2	0.7
COc1cc(OC)cc(C(=O)NCCSC2CCCCC2)c1	/	3	0.68	3.7	-3.6	0.1	0.3
CN1CCN(CCC(=O)Nc2ccc(OCc3ccccc3)cc2)CC1	-1%	3	0.66	-1.4	0.2	-0.9	0.1
Fc1cc(Br)ccc1Nc1nc2ccccc2n2nnnc12	-3%	-10	0.71	4.2	-3.8	-15	-0.6
O=C(O)c1ccc(N2CCN(Cc3ccc4c(c3)OCO4)CC2)c([N+](=O)[O-])c1	-3%	-1	0.69	-4.9	5.2	4.3	0.2
CCN1C/C(=C\c2cccc([N+](=O)[O-])c2)C(=O)/C(=C/c2cccc([N+](=O)[O-])c2)C1	24%	85*	0.7	0.2	/	2.7	/
CN(C)S(=O)(=O)c1cccc(C(=O)Nc2ccc(Cl)cn2)c1	3%	-17	0.67	5.0	-0.4	1.9	1.1
COC(=O)Cc1csc(N)n1	-1%&4%	-3&4	0.66&0.75	2.5&3.0	-3.2&-9.6	1.9&2.5	1.6&0.7
CCC(=O)NC1CCN(C(=S)NC)CC1	4%	-6	0.7	1.9	0.3	3.5	1.3
O=C1CCCCN1CCCC(=O)N1CCCC(Nc2ccc(F)c(F)c2)C1 (stereo not drawn)	4%	-1	0.64	-1.7	-2.2	0.9	0.5
CCC(CC)C(=O)Nc1nnc(S(=O)(=O)N2CCCC2)s1	/	-2	0.74	5.6	-1.4	3.4	0.1
CC(C)=CCC/C(C)=C/CCC(C)NCCN1CCNCC1 (stereo not drawn)	-6%	/	/	/	-8.8	/	-0.8
Cc1ccccc1CNS(=O)(=O)c1ccc2c(c1)C(C)(C)C(=O)N2C	/	0	0.68	2.8	-0.4	1.3	-1.9
CN(C)C(=O)C[n+]1cccc(/C=N/O)c1	/	0	/	-5.5	5.5	/	0.4
Cc1occc1-c1nnc(SCC(=O)Nc2ccccc2)n1Cc1ccccc1	-3%	-6	0.67	0.4	-1.2	5.3	0.6
COc1cccc(C2C(C#N)=C(N)Oc3cc(C)oc(=O)c32)c1OC (stereo not drawn)	4%	15	0.68	1.7	0.8	4.2	-0.4
CNS(=O)(=O)c1cn(CC(=O)NCc2ccc(N(C)C)cc2)cc1S(=O)(=O)NC	2%	3	0.66	-3.2	0.2	5.3	-0.3
CCn1ccnc1CNCc1ccc(OCC(O)CN(C)Cc2ccccc2)cc1 (stereo not drawn)	1%	15	0.68	3.9	0.0	3.7	-0.8
Cc1ccc(NC2CCCN(C(=O)C3CCCC3)C2)cc1C (stereo not drawn)	3%	12	0.71	-0.8	3.3	1.4	0.3
CCCCC(=O)NC(=S)Nc1ccc(NC(=O)C(C)C)c(OC)c1	-5%	-13	0.72	0.2	-3.3	5.8	0.9
CC(C)(C)NCC(O)COc1ccccc1C1CCCC1 (stereo not drawn)	/	17	0.67	0.7	-1.0	3.3	-0.3
O=C(Nc1ccc2c(c1)nc1n2CCN(Cc2ccccc2)C1)c1cccs1	-2%	28	0.71	10	6.9	-0.1	-1.2
COC(=O)C1=C(C)N(Cc2ccccc2)C(=NCC(C)C)N[C@H]1c1cccc(F)c1	/	31	/	3.2	16	4.1	1.4
CCc1cc2ccccc2nc1SCC(=O)NC1CCCC1	/	4	0.69	1.4	-5.6	1.9	1.3
CN(Cc1ccc(Cl)c(Cl)c1)C(=O)CN1C(=O)NC2(CCCC2)C1=O	-3%	-7	0.7	0.0	-4.4	8.0	1.7
Cc1cc(=O)oc2c(CN3CCCC3)c(O)c(Cl)cc12	8%	-4	0.65	-3.4	5.1	i	-0.5
CC(=O)CN1C(=O)NC2(CCCc3ccccc32)C1=O (stereo not drawn)	-8%	-1	0.69	3.4	3.9	2.4	1.1
OC1(c2ccccc2)CN(c2ccccc2)C2=[N+]1CCS2 (stereo not drawn)	/	8	0.71	3.6	5.3	4.7	-0.6
CC1Cc2nc(SCC(=O)Nc3nccs3)n(C)c(=O)c2S1 (stereo not drawn)	20%	7	0.73	0.9	-2.4	12	-0.2
CCC(CO)Oc1cc(NCc2ccccc2F)c2ncn(C(C)C)c2c1 (stereo not drawn)	/	-2	0.71	-2.6	-0.6	0.0	-1.0
CC(OC(=O)CNC(=O)c1ccc2ccccc2c1)C(=O)N(C)C1CCCCC1 (stereo not drawn)	-6%	1	0.67	-0.6	-3.9	6.8	-0.3
COc1ccc(N2CCN(C(=O)CSc3ccccc3N)CC2)cc1	?	2	0.71	0.0	-2.9	-1.9	0.4
CC(=O)OCC1OC(n2c(-c3ccc(Cl)cc3)ccc(C#N)c2=S)C(OC(C)=O)C(OC(C)=O)C1OC(C)=O (stereo not drawn)	-173%	-83	/	21	/	/	/
COc1ccc(N/C=C2/Sc3ccccc3NC2=O)cc1	-5%	-2	0.7	-0.3	-9.1	2.2	-7.8
CC12CCC(c3c(C(=O)O)nn(-c4ccc(F)cc4)c31)C2(C)C (stereo not drawn)	0%	-8	0.71	-6.3	0.7	1.1	1.1
Cc1ccc(NCc2nnc(SCC(=O)N3CCCc4ccccc43)o2)c(C)c1	-5%	-2	0.74	-2.9	1.8	0.1	1.0
O=C(NNC(=O)c1cc(Cl)ccc1O)c1cccs1	/	4	0.64	-1.9	0.0	0.3	0.7
Cc1ccc(S(=O)(=O)N2CCOCC2)cc1C(=O)c1nccn1C	/	-1	0.66	3.8	-1.9	3.1	0.3
COC(=O)c1nn(-c2ccc3c(c2)OCO3)cc1O	-1%	-5	0.61	1.2	-1.8	-49	-14
O=C(CCCCCNc1nc(=S)[nH]c2ccccc12)NCCC1=CCCCC1	0%	-7	0.67	5.1	1.7	3.3	-0.8

Following part:
SMILES	Vif TR-FRET	B2AR ag	E coli growth	HNF4A DNA FP	LANA-H2A inh	UCH37 DUB inh	A1 inh
O=C(Nc1cccc(-c2cccc(Cl)c2)c1)C1CCN(CC2CCOC2)CC1 (stereo not drawn)	5%	24	0.68	3.3	2.5	3.7	-0.2
CCOc1cc(NC(=S)Nc2ccccc2)c(OCC)cc1NC(=O)c1ccc(OC)cc1	-2%	19	0.75	1.4	4.1	-6.9	0.5
CN(CC(=O)Nc1c(Cl)cccc1Cl)C(=O)Cc1ccsc1	-2%	22	0.64	1.8	-0.8	-0.1	-1.4
Cc1cc(-c2n[nH]c(=S)n2/N=C/c2ccc(C)o2)n[nH]1	28%	10	/	4.8	0.1	/	0.4
O=C(CN1CCN(S(=O)(=O)c2ccccc2)CC1)Nc1ccc(Cl)cn1	2%	5	0.7	2.5	1.3	3.4	0.1
O=C(CCNC(=O)c1ccco1)Nc1ccc(SC(F)F)cc1	/	-3	0.64	-3.3	2.1	1.3	0.4
COC(=O)C1CCCN1C(C(=O)NC1CCCCC1)c1ccc(Cl)cc1 (stereo not drawn)	2%	1	0.71	-1.3	6.4	2.1	0.2
O=C(NNC(=O)C1CC=CCC1C(=O)O)c1cccs1 (stereo not drawn)	-7%	0	0.65	-3.9	5.6	0.9	0.8
CC(C)n1c(Nn2cnnc2)nc2ccccc21	13%	4	0.7	1.0	2.2	3.4	-0.2
Cc1cc(Oc2nc3ccccn3c(=O)c2/C=C(\C#N)C(=O)NC2CCS(=O)(=O)C2)ccc1Cl (stereo not drawn)	/	1	0.59	-1.9	-7.0	-57	0.1
CCCCCCc1cc2cc(C(=O)OCC)c(=O)oc2cc1O	4%	15	0.67	1.9	-6.1	i	0.3
COc1cc(Br)cc(/C=N/N(CCO)C2=NS(=O)(=O)c3ccccc32)c1OC	-5%	-1	/	1.4	5.5	/	-0.6
CN(C)/C=C(\C(=O)c1ccc(F)cc1F)c1nnnn1-c1ccccc1	32%	3	0.63	3.3	-0.8	6.4	0.0
Cc1cc(C(=O)N/N=C/c2cccc(OC(=O)c3ccco3)c2)n[nH]1	-4%	-7	/	1.5	-3.6	/	-0.9
N#C/C(=N/Nc1ccccc1[N+](=O)[O-])C(N)=S	14%	11	/	4.9	-6.3	/	-0.1
Cc1ccc(C)c(N(C(=O)c2csnn2)C(C(=O)NC2CCCCC2)c2cccnc2)c1 (stereo not drawn)	/	-1	0.69	1.5	-0.8	-1.1	-0.2
CCOC(=O)N1CCN(C(=O)CCS(=O)(=O)c2ccc3c(c2)CCN3C(=O)CC)CC1	/	-7	0.69	0.6	-11	2.6	2.0
Cc1cc(C)nc(SCc2cnc(C)nc2N)n1	1%	-15	0.73	6.8	3.7	1.6	0.4

Of the compounds above, 4 have a thiophene ring, fused or not:
SMILES	Vif TR-FRET	B2AR ag	E coli growth	HNF4A DNA FP	LANA-H2A inh	UCH37 DUB inh	A1 inh
O=C(Nc1ccc2c(c1)nc1n2CCN(Cc2ccccc2)C1)c1cccs1	-2%	28	0.71	10	6.9	-0.1	-1.2
O=C(NNC(=O)c1cc(Cl)ccc1O)c1cccs1	/	4	0.64	-1.9	0.0	0.3	0.7
CN(CC(=O)Nc1c(Cl)cccc1Cl)C(=O)Cc1ccsc1	-2%	22	0.64	1.8	-0.8	-0.1	-1.4
O=C(NNC(=O)C1CC=CCC1C(=O)O)c1cccs1 (stereo not drawn)	-7%	0	0.65	-3.9	5.6	0.9	0.8

Screening results as filed in PubChem.
